YopH PTP inh: inhibitors of Yersinia enterocolitica YopH tyrosine phosphatase. hit rate 0.16% among 140,000. AID 898. inhibition, %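 (about 10 µM by stock and volumes)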. fluorescence Ex485/Em525;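 active means inhibition of 50% or more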;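 further: controls were vehicle for no effect and minimum signal wells for full effect; inactives centre near -20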
Arbovirus inh: blocks arbovirus infection. inhibition, % at 10 µM. hit rate 0.37% among 200,000. AID 1251. arbovirus infection cell-based antiviral screen;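 active means inhibition from about 30%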;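 further: bluetongue infection of BSR cells; cell survival read as ATP light after 72 h; 0% = infected wells without compound and 100% = uninfected wells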
RecA intein inh: blocks M. tuberculosis RecA intein splicing | inhibition, %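 (about 9 µM by stock and volumes)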 | AID 2221 | hit rate 0.75% among 290,000 | cell-free RecA intein splicing, fluorescence; in the data active means inhibition above about 30%; inconclusive means no clear call, values can overlap the other calls;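 further: 0% = vehicle wells and 100% = reference inhibitor control wells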
Target sequence (P9WHJ3 whole entry, looked up): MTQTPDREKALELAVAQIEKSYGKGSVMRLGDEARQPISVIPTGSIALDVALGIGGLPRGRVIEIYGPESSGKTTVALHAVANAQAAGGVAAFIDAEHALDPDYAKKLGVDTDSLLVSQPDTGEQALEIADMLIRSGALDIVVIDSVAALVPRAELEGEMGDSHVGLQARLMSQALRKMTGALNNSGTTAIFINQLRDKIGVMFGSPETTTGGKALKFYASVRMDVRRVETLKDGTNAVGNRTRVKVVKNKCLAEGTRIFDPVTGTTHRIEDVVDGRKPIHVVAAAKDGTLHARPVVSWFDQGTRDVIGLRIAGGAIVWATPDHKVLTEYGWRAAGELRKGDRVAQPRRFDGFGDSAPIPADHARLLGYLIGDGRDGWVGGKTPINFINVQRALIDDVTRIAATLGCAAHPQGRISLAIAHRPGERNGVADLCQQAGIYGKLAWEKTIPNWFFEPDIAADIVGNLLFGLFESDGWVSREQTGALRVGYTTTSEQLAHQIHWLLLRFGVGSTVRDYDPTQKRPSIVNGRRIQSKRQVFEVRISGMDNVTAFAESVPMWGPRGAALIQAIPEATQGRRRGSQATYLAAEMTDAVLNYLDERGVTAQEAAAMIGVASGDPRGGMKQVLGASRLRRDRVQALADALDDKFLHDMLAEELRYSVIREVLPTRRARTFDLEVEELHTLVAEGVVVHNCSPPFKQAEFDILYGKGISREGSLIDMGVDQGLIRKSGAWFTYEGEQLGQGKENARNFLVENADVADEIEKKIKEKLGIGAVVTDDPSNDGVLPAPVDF
Mtb bLac sens: beta-lactam sensitization of Mtb H37Rv. M. tuberculosis H37Rv growth with meropenem, percent inhibition; hits of this screen are not shown here. hit rate 0.27% among 330,000. inhibition, % at 25 µM;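 active means about 74% or more and at least 40 points above the plate without the antibiotic, then above 30% in a dose series; inconclusive means first-round hits that could not be retested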;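 further: growth measured after seven days incubation then overnight dye step; 0% = bacteria only wells and 100% = bacteria with antibiotic; twin plates without the antibiotic show which effects depend on it; some results filed as inactive read as strong as hits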
Mtb growth: M. tuberculosis H37Rv growth inhibitors, H37Rv strain (AID 1626) | hit rate 0.95% among 220,000 | inhibition, % at 10 µM, or IC50 in µM where a hit was titrated | M. tuberculosis H37Rv growth inhibition; higher % means a stronger effect;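 active means confirmed in a dose series; inconclusive means inhibition above 80% but not taken into the dose series; inactive means below 80% or under 30% at every dose of the series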;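 further: bacteria incubated seven days before Alamar blue readout; 0% = bacteria only wells and 100% = bacteria with antibiotic wells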
Arbovirus inh repeat: also measured in Arbovirus inh; calls as there; inhibition, %; measured here: 10K subset replicate screen; many hits read low in the repeat;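 first of two repeat runs on a subset; 0% = infected and 100% = uninfected wells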
Numbers without * were called inactive; i = inactive; ? = inconclusive; . = not tested or not shown.

SMILES	YopH PTP inh	Arbovirus inh	RecA intein inh	Mtb bLac sens	Mtb growth	others
COc1cc2c(cc1NC(=O)COC(=O)C1CC(=O)N(Cc3ccco3)C1)oc1ccccc12 (stereo not drawn)	-27.8	-4.4	2.7	-6.8	3.1%
CCCC(NC(=O)Cc1c(C)c2c(cc(C)c3c(C)coc32)oc1=O)C(=O)O (stereo not drawn)	.	.	-0.2	4.2	.
c1ccc(COCC2CCNCC2)cc1	.	.	1.2	-4.5	.
CCOC(=O)N1CCc2c(sc(NC(=O)C3COc4ccccc4O3)c2C(N)=O)C1 (stereo not drawn)	.	.	0.1	-10.3	.
CCOc1ccc(-c2nn[nH]n2)cc1OCC	-11.4	4.8	-1.7	-15.0	-1.0%
CCCCCCc1nc(C(N)=O)c2[nH]c(=O)n(-c3ccc(OC)cc3OC)c2n1	.	.	0.5	?	.
CC(=O)C1C(=O)c2c(cccc2[N+](=O)[O-])C1=Nc1cccc(Cl)c1 (stereo not drawn)	.	.	0.8	-6.2	3.4%
O=C(CNC(=O)C1CCCCC1)Nc1ccc(F)c(Cl)c1	.	3.0	-0.5	16.4	-9.3%
Cc1ccc(C)c(N2CC(C(=O)Nc3cc(C)on3)CC2=O)c1 (stereo not drawn)	.	.	0.6	0.2	.
FC(F)(F)c1cc(-c2cccs2)nc2ncnn12	.	-2.9	-5.4	-3.9	7.4%
COc1ccc(C2NC(=S)NC3=C2N2CCC3CC2)cc1 (stereo not drawn)	.	.	-1.8	-18.4	.
Cc1ccccc1NC(=O)C1CC(=O)N(c2ccc3c4c(cccc24)CC3)C1 (stereo not drawn)	-31.4	1.5	-0.1	-6.4	12.5%
CCCCn1c(N)c(N(CCOC)C(=O)CCS(=O)(=O)c2ccc(Cl)cc2)c(=O)[nH]c1=O	.	.	2.6	-4.2	.
COC(=O)[C@@H]1C[C@@]2(O)[C@H](O)[C@H](O)[C@H](O)C[C@H]2N1Cc1cc(OC)cc(OC)c1	.	.	-0.6	-13.5	-17.0%
Cc1ccc(S(=O)(=O)CCC(=O)OCC(=O)NCc2ccccc2)cc1	.	.	1.3	1.0	.
OCCC1CN(Cc2cnc(N3CCCC3)s2)CCN1C1CCCC1 (stereo not drawn)	.	5.4	0.6	2.2	3.1%
c1ccc(CNc2nc3ccccc3n2CCN2CCOCC2)nc1	-41.3	-0.1	0.4	2.9	-6.3%
COc1cccc(CN2CC(C(=O)N(C)Cc3ccnc4ccccc34)CCC2=O)c1 (stereo not drawn)	.	.	0.5	-0.5	.
C=C(C)COc1ccc(-c2[nH]ncc2-c2ccc(OC)c(OC)c2)c(O)c1	-40.9	-15.4	0.9	-5.5	2.2%
CC(=O)c1cccc(NC(=O)COC(=O)c2cccs2)c1	.	2.0	-1.9	-1.0	-3.8%
COC(=O)N/N=C/c1cccc([N+](=O)[O-])c1	.	.	-0.9	-4.2	-6.3%
N#C/C(=C\C1CC2C=CC1C2)c1nc2ccccc2[nH]1 (stereo not drawn)	-25.1	0.1	1.6	-5.8	-2.2%
COc1cccc(/C(O)=C2/C(=O)C(=O)N(c3cc(C)on3)C2c2cccs2)c1 (stereo not drawn)	-22.2	-0.9	0.4	13.9	-2.7%
Cc1ccccc1-n1c(=O)c(C#N)cc2c(=O)n3ccccc3nc21	-18.4	-10.5	i	-2.7	-6.1%
CCC[C@H]1COCCS(=O)(=O)N1Cc1ccc(Br)cc1	.	.	1.3	-2.8	.
Cc1ccc(C(=O)OCC(=O)NCc2ccc3c(c2)OCO3)s1	-26.9	8.1	-2.1	-11.0	2.4%
Cc1cccc(OCCCC(=O)NC(C)c2ccccc2)c1 (stereo not drawn)	-3.5	0.8	9.4	1.7	9.3%
NC(=O)c1nn(-c2ccccc2)nc1N	3.7	1.7	-0.6	-0.5	-4.6%
CCOC(=O)N1CCC(c2nc3ccccc3[nH]2)CC1	-42.2	3.2	-0.2	-3.3	-1.7%
O=C(NCCSCc1ccco1)Nc1cccc(Cl)c1	1.9	-8.3	5.3	7.7	-2.7%
N/C(Cn1nnc(-c2ccccc2)n1)=N\O	3.1	11.8	-1.6	-5.6	4.9%
Cc1[nH]c2ccccc2c1C(=O)C(=O)NC1CC1	.	.	0.9	4.5	.
Cc1ccnc(NC(=O)C2CCN(S(=O)(=O)c3c(C)c(C)cc(C)c3C)CC2)c1	.	.	3.6	48.8	.
O=C(NCCS(=O)(=O)N1CCN(Cc2ccccc2)CC1)c1ccccc1	.	.	1.3	-11.7	.
C/C(CC(=O)Nc1cccc(C(F)(F)F)c1)=N\NC(=O)c1cnccn1	.	.	-0.1	2.9	.
O=C(CCn1c2c(c3ccccc31)CCCC2)NNC(=O)c1ccccc1Cl	-47.2	11.0	-4.3	4.0	12.9%
NS(=O)(=O)c1ccc(CCNC(=O)c2ccc(Cl)nc2)cc1	.	.	-1.6	-3.9	.
O=C(CN1CCOCC1)Nc1ccccc1NC(=O)C1CCN(c2ncccn2)CC1	-28.9	9.9	-2.8	-5.8	-10.0%
CCC(Sc1nc2cc(OC)c(OC)cc2c(=O)n1CCc1ccc(S(N)(=O)=O)cc1)C(=O)NCCOC (stereo not drawn)	.	17.6	-4.5	-0.5	-2.1%
CCCC(C)NC(=O)/C=C/c1cccc([N+](=O)[O-])c1 (stereo not drawn)	-2.6	-1.1	2.0	17.4	1.6%
CCc1cccc(NC(=O)NC(=O)Cn2nnc(C(=O)OC)c2C(=O)OC)c1	-20.5	-10.0	-0.7	4.0	3.4%
Cc1cccc(-n2cnc3sc(C)c(C)c3c2=O)c1	.	.	0.3	-7.7	-7.7%
O=C(Nc1nccs1)c1cc(-c2ccncc2)nc2ccccc12	.	2.7	0.2	4.7	-1.2%
CC(C)(C)S(=O)(=O)c1ccc(S(=O)(=O)C(C)(C)C)s1	-6.3	8.5	2.0	3.3	-6.4%
Cc1cccc(C)c1NC(=O)Nc1ccc2c(c1)OCO2	.	-2.6	-2.6	6.0	5.8%
Cc1noc(NS(=O)(=O)c2ccc(N/C=C\C(=O)c3cccc4ccccc34)cc2)c1C	.	0.2	2.1	17.0	2.2%
COC(=O)[C@H](C)NC(=O)Nc1ccccc1C(F)(F)F	7.1	4.7	1.8	-16.9	-1.4%
Cc1nc(-c2ccc(Cl)cc2)sc1C1(C)CC(c2ccncc2)=NO1 (stereo not drawn)	.	.	3.6	7.6	-5.6%
CC1(NC(=O)c2cc(-c3cccs3)nn2-c2ccccc2)CCS(=O)(=O)C1 (stereo not drawn)	.	.	0.2	-2.3	.
CCCCSc1n[nH]c(N)n1	-23.2	8.3	-0.6	3.7	4.3%
O=C(NCc1ccccc1Cl)C1CCC(=O)N(CCCN2CCCC2=O)C1 (stereo not drawn)	.	.	2.8	-17.2	.
CCN=C(NCC)SC1CC(=O)N(c2cccc(OCC)c2)C1=O (stereo not drawn)	-52.6	-1.4	-2.9	-5.9	-5.9%
COc1ccc(NC(=O)C2CC(=O)N(Cc3ccc(C)cc3)C2)cc1S(=O)(=O)N1CCCCC1 (stereo not drawn)	-6.1	14.9	3.6	-0.5	4.9%
O=C(NNc1ccccc1Cl)C(O)(c1cccc(C(F)(F)F)c1)c1cccc(C(F)(F)F)c1	-22.2	-7.7	1.8	-4.3	13.6%
CCOC(=O)c1c(C)c(C(=O)NCCCOC)c(C)n1C	-42.2	6.0	0.2	-0.8	.
COc1ccccc1NC(=O)N1CCCC1C(=O)Nc1ccc(NC(C)=O)cc1 (stereo not drawn)	-55.9	1.3	.	1.4	-5.1%
Cc1noc(C)c1S(=O)(=O)N(CC(=O)NCc1ccc2c(c1)OCO2)c1ccc(C(C)C)cc1	-33.4	-6.9	4.2	-4.2	-7.2%	Arbovirus inh repeat=-7.0
O=C(CCl)c1cc2c3c(c1)CC(=O)N3CCC2	.	.	43.6*	99.0	.
CN(C)CCCNC(=O)C(=O)NCC(c1cccs1)S(=O)(=O)c1ccc(F)cc1 (stereo not drawn)	.	.	0.8	-5.0	.
COc1ccc(N(CC(=O)Nc2ccc(F)c(Cl)c2)S(=O)(=O)c2c(C)noc2C)cc1	-30.3	-9.1	4.8	-2.9	-10.2%

The closing two records of the section before lead into the next:
SMILES	YopH PTP inh	Arbovirus inh	RecA intein inh	Mtb bLac sens	Mtb growth	others
CN(C)CCCNC(=O)C(=O)NCC(c1cccs1)S(=O)(=O)c1ccc(F)cc1 (stereo not drawn)	.	.	0.8	-5.0	.
COc1ccc(N(CC(=O)Nc2ccc(F)c(Cl)c2)S(=O)(=O)c2c(C)noc2C)cc1	-30.3	-9.1	4.8	-2.9	-10.2%
CC1=NN(C(=O)Cc2ccccc2)C(O)(c2ccccc2)C1 (stereo not drawn)	.	1.3	-1.1	-4.4	-2.6%
C=CCNC(=S)NNC(=O)C(CCC(C)C)CC(C)O (stereo not drawn)	10.9	2.6	-6.8	-8.9	-2.2%
CCOC(=O)Cn1c(=S)[nH]c2c(oc3ccc(Cl)cc32)c1=O	18.8	-0.7	3.4	-2.9	-9.9%
Cc1cc(C)c(N(CC(=O)NC(C)(C)C)C(=O)CNC(=O)c2cccs2)c(C)c1	.	2.0	-1.8	-0.6	-6.8%
Cn1ccs/c1=N\S(=O)(=O)c1ccc(Br)cc1	-10.1	5.3	1.7	1.5	-5.2%
CCOC(=O)CNC(=O)CNC(=O)c1ccc(OC(C)C)cc1	.	.	-1.4	-1.6	8.5%
CC1CCN(c2ncccc2C(=O)O)CC1	-51.9	-2.5	0.4	-2.5	10.1%
Cc1ccc(NC(=O)CSc2nnc(-c3ccncc3)n2C)cc1S(=O)(=O)N1CCOCC1	.	-3.0	4.8	-9.1	4.8%
CC(C)NS(=O)(=O)c1ccc(OCC(=O)Nc2ccccc2F)cc1	-19.9	-8.0	-0.5	0.0	-8.6%
CC(C)(C)C(=O)Nc1ccc(NC(=O)c2ccco2)nc1	.	.	-0.3	2.7	.
Clc1ccc(Nc2ccc3ccccc3n2)cc1	.	.	5.7	35.3	.
COc1ccc2nc(NC(=O)c3ccc(-c4cccc([N+](=O)[O-])c4)o3)sc2c1	-4.0	-11.6	1.5	11.6	4.4%
CSc1nc(N2CCOCC2)c2c(c1C#N)CC(C(C)C)OC2 (stereo not drawn)	.	.	-0.9	-0.7	.
Cc1ccccc1Nc1nc(N)nc(COC(=O)c2ccc(O)cc2)n1	3.8	1.6	-1.8	-4.2	6.7%
Cc1cccc(NC(=S)N(Cc2ccc(Cl)cc2)Cc2ccc(C(=O)O)cc2)c1	.	-0.5	4.1	1.2	1.6%
c1ccc(-c2ccccc2OCCN2CCCC2)cc1	.	.	-0.7	2.9	.

Among those listed so far, these have an aryl methoxy group:
SMILES	YopH PTP inh	Arbovirus inh	RecA intein inh	Mtb bLac sens	Mtb growth	others
COc1cc2c(cc1NC(=O)COC(=O)C1CC(=O)N(Cc3ccco3)C1)oc1ccccc12 (stereo not drawn)	-27.8	-4.4	2.7	-6.8	3.1%
CCCCCCc1nc(C(N)=O)c2[nH]c(=O)n(-c3ccc(OC)cc3OC)c2n1	.	.	0.5	?	.
COc1ccc(C2NC(=S)NC3=C2N2CCC3CC2)cc1 (stereo not drawn)	.	.	-1.8	-18.4	.
COC(=O)[C@@H]1C[C@@]2(O)[C@H](O)[C@H](O)[C@H](O)C[C@H]2N1Cc1cc(OC)cc(OC)c1	.	.	-0.6	-13.5	-17.0%
COc1cccc(CN2CC(C(=O)N(C)Cc3ccnc4ccccc34)CCC2=O)c1 (stereo not drawn)	.	.	0.5	-0.5	.
C=C(C)COc1ccc(-c2[nH]ncc2-c2ccc(OC)c(OC)c2)c(O)c1	-40.9	-15.4	0.9	-5.5	2.2%
COc1cccc(/C(O)=C2/C(=O)C(=O)N(c3cc(C)on3)C2c2cccs2)c1 (stereo not drawn)	-22.2	-0.9	0.4	13.9	-2.7%
CCC(Sc1nc2cc(OC)c(OC)cc2c(=O)n1CCc1ccc(S(N)(=O)=O)cc1)C(=O)NCCOC (stereo not drawn)	.	17.6	-4.5	-0.5	-2.1%
COc1ccc(NC(=O)C2CC(=O)N(Cc3ccc(C)cc3)C2)cc1S(=O)(=O)N1CCCCC1 (stereo not drawn)	-6.1	14.9	3.6	-0.5	4.9%
COc1ccccc1NC(=O)N1CCCC1C(=O)Nc1ccc(NC(C)=O)cc1 (stereo not drawn)	-55.9	1.3	.	1.4	-5.1%
COc1ccc(N(CC(=O)Nc2ccc(F)c(Cl)c2)S(=O)(=O)c2c(C)noc2C)cc1	-30.3	-9.1	4.8	-2.9	-10.2%
COc1ccc2nc(NC(=O)c3ccc(-c4cccc([N+](=O)[O-])c4)o3)sc2c1	-4.0	-11.6	1.5	11.6	4.4%

The list is partial (hit frequency here may not be typical).
